H5N1 CPE: antiviral screen in MDCK cells, H5N1 avian flu | cytopathic effect, luminescence, 72 h; active compounds read high; no value below 0 was filed and about half of the inactive calls have no number; reference of the scale not given here | inhibition, % at 50 µM | hit rate 0.07% among 96,000 | AID 740; in the data active means inhibition above about 25%
An asterisk follows results filed as active; i = inactive. Not all compounds are listed, so the mix of outcomes need not match the whole.

SMILES	H5N1 CPE
O=C(O)CCC(=O)Nc1nc(-c2ccccc2)cs1	0.2
COCCCN(C(=O)c1ccco1)c1nc(-c2cc(OC)ccc2OC)cs1	0.2
CC(C)C(=O)Nc1cccc(C(=O)OCC(=O)c2ccc(Cl)cc2Cl)c1	0.5
COc1ccc(-c2ccc(-c3noc(C)n3)c(OC)n2)cc1	i
CCOC(=O)C(NC(=O)Nc1cccc(C)n1)(OCC(F)(F)F)C(F)(F)F (stereo unspecified)	i
O=C(NNC(=O)C1CCCCC1)C(=O)NC1CCCCC1	i
CC1C(C(=O)Nc2ccccc2)CCCC1(C)C(=O)O (stereo unspecified)	i
CN1CCN(C(=O)CN(c2cccc(Cl)c2)S(=O)(=O)c2ccccc2)CC1	i
CCC(=O)Nc1ccccc1C(=O)NC1CCCCC1	0.4
CC(C)CNC(=O)NC1C(NC(=O)NCC(C)C)N(C)C(=O)N1C (stereo unspecified)	i
CCC(C)C(NC(=O)OCc1ccccc1)C(=O)OCN1C(=O)c2ccccc2C1=O (stereo unspecified)	1.1
CCOC(=O)C1C(=O)CC(O)(c2ccccc2)CC1c1ccccc1 (stereo unspecified)	i
Cc1nc2ccccc2c(=O)n1/N=C/c1ccccn1	i
c1cncc(CNc2c3c(nc4nnnn24)CCCC3)c1	0.3
COc1ccc(C(=O)CSc2nc(N)nc(SC)c2C#N)cc1	i
O=C(NCCc1c[nH]c2ccccc12)c1c(Cl)nc2sccn12	i
COc1ccc(N2C(C)=CS/C2=C(/C#N)c2nnc(N3CCOCC3)n2-c2ccccc2)cc1	i
COc1ccc(S(=O)(=O)NC2CCCCC2)c(C)c1C	0.1
Cn1c(=O)c2c(nc(Br)n2Cc2ccccc2Cl)n(C)c1=O	0.1
CN(C)CCCOC(=O)c1ccc(Cl)cc1Cl	2.8
O=C(c1ccco1)N1C(=O)c2cccc3c(S(=O)(=O)N4CCCC4)ccc1c23	2.3
O=C(NCc1cccc(Cl)c1)c1cnn2c1NC(c1ccco1)CC2C(F)(F)F (stereo unspecified)	i
CC1=C(C)CC2C(=O)N(c3cccc4ccccc34)C(=O)C2C1 (stereo unspecified)	2.5
Cc1cc(C)c2c(C)nn(C3CCCCC3)c2n1	i

Laid out differently: results already given
Cn1c(=O)c2c(nc(Br)n2Cc2ccccc2Cl)n(C)c1=O
  H5N1 CPE = 0.1

CN(C)CCCOC(=O)c1ccc(Cl)cc1Cl
  H5N1 CPE = 2.8

O=C(c1ccco1)N1C(=O)c2cccc3c(S(=O)(=O)N4CCCC4)ccc1c23
  H5N1 CPE = 2.3

O=C(NCc1cccc(Cl)c1)c1cnn2c1NC(c1ccco1)CC2C(F)(F)F (stereo unspecified)
  H5N1 CPE = i

The listing continues:
SMILES	H5N1 CPE
Cc1ccc(CN2CCNC(=O)C2CC(=O)O)o1 (stereo unspecified)	0.3
Cc1ccc(Nc2nc(Oc3ccc(=O)[nH]n3)nc(N(C)C)n2)cc1	i
Cc1nn(-c2ccccc2)c(C)c1/C=N/n1c(-c2ccc(C(C)(C)C)cc2)n[nH]c1=S	i
Cc1cc(C)cc(N(CC(=O)NCc2ccc3c(c2)OCO3)C(=O)CCC(=O)Nc2ccccn2)c1	i
Cc1ccc(SC(C)C(=O)NCc2cccnc2)cc1 (stereo unspecified)	0.4
CCCCN=C(C)C1=C(O)CSC1=O	i
O=C(O)C1C2CCCCC2=C2CCCCC2C1C(=O)O (stereo unspecified)	0.7
COc1ccc(C(=O)N2CCN(C(=O)c3ccncc3)CC2)cc1	1.6
C=CCn1c(-c2cccc3ccccc23)n[nH]c1=S	0.3
COc1ccc(CCNC(=O)Cn2nnc(-c3cccc(OC)c3OC)n2)cc1OC	0.4
CCNc1nc(Oc2ccc(C(=O)OCC)cc2)nc(SC)n1	i
O=C(Nc1cccc2ccccc12)N1CCOCC1	i
CC1=C(C(=O)Nc2cc(C)ccn2)C(c2ccc(C)cc2)C2=C(CCCC2=O)N1 (stereo unspecified)	1.5
CCN1CCCC1CNCc1cccc(OC)c1OCc1ccccc1F (stereo unspecified)	i
CCCNc1nc2c(c(=O)n(C)c(=O)n2C)n1CCC(C)C	1.4
CC(=O)N1CCC(O)(c2cccc(C(F)(F)F)c2)CC1	i
COc1cc(Cl)c(C)cc1NC(=O)COc1ccccc1[N+](=O)[O-]	0.3
Fc1ccc(/C=N/c2c(-c3ccc(F)cc3)nc3n2CCS3)cc1	0.0
Cc1ccccc1NC(=S)NNC(=O)c1csc2c1CCC(C)C2 (stereo unspecified)	0.7
COc1ccc(S(=O)(=O)N2CCN(CC(=O)Nc3ccc(F)c(F)c3)CC2)cc1	2.5
C1CN(c2nc3nonc3n3nnnc23)CCO1	i
CCCCCSc1nc(C)c(CC(=O)O)c(=O)[nH]1	i
Cc1ccc(C(=O)NCCCn2ccnc2)cn1	0.6
Cc1ccc(C)c(NS(=O)(=O)c2cc(C(=O)NCc3ccco3)ccc2C)c1	i
CCN1C(=O)/C(=C\N2CCN(c3ccccc3)CC2)SC1=S	0.6
OCCCn1c(-c2ccccc2)nc(=S)c2c1CCCC2	i
Cc1c(C(=O)NC(C)CCc2ccccc2)cccc1[N+](=O)[O-] (stereo unspecified)	1.6
COc1ccccc1NC(=O)N1CCN(c2cc(-c3ccccc3)nc3ncnn23)CC1	1.1
COc1ccc(CNC(=O)c2cc3c(C)nc4ccccc4c3o2)c(OC)c1	2.1
CCOC(=O)c1c(NC(=O)CN(C)C)sc(C(=O)N(CC)CC)c1C	i
Cc1cc(Nc2nnnn2-c2ccccc2)n(-c2ccc(Cl)cc2)n1	1.9
COc1ccc2c(c1[N+](=O)[O-])CCC/C2=N/OC(=O)c1ccccc1SC	2.9
Cc1ccc(S(=O)(=O)N2CCN(C(=O)COC(=O)c3cc(C)oc3C)CC2)cc1	0.9
O=C(CCCn1c(=O)[nH]c2ccsc2c1=O)NCc1cccs1	1.9
CCC1CCCCN1C(=O)Nc1cccc(NC(=O)N2CCCCC2CC)c1 (stereo unspecified)	32*
Cc1csc(NC(=O)Nc2cccc(Cl)c2)n1	2.4

Later entries.
| SMILES | H5N1 CPE |
| --- | --- |
| Cc1ccc(NC(=O)Cc2ccc3c(c2)CCCC3)cc1C | 0.8 |
| Cc1cc(C(=O)N/N=C/c2cccc([N+](=O)[O-])c2)c(C)o1 | 0.4 |
| COc1ccccc1CN1C(=O)CN(C2CCCCCC2)C(=O)C1c1ccc(F)cc1 (stereo unspecified) | 1.7 |
| O=C1c2ccccc2-c2nccnc21 | i |
| Cc1nn(-c2ccccc2)c(Cl)c1C1C(C#N)=C(N)Oc2c1c(=O)oc1ccccc21 (stereo unspecified) | i |
| COC(=O)c1ccc(C(C(=O)NCc2ccccc2)N(Cc2cccs2)C(=O)c2cnccn2)cc1 (stereo unspecified) | i |
| OC(CNCC(c1ccco1)N1CCCCC1)c1ccccc1 (stereo unspecified) | i |
| COc1ccccc1OCC(=O)Nc1ccc(Cl)cc1C(=O)c1ccccc1 | i |
| O=C(c1ccco1)N1CCN(c2ccccc2F)CC1 | 0.4 |
| Cn1c(=O)c2c(nc(CN3CCN(Cc4ccccc4)CC3)n2Cc2ccc(F)cc2)n(C)c1=O | 2.7 |
| Cc1ccccc1C(=O)Nc1sc(C)c(C)c1C(=O)c1ccccc1 | i |
| CCc1ccccc1NC(=O)c1ccc(CN2CCC(Cc3ccccc3)CC2)cc1 | i |
| Cc1ccc(OCC(=O)N(C)CCc2ccccn2)cc1 | i |
| COc1ccc(-n2c(C)cc(C=O)c2C)cc1Cl | i |
| c1ccn(-c2ncnc3sc4c(c23)CCCC4)c1 | i |
| Cc1noc(C)c1C(=O)OCC(=O)c1c(N)n(CC(C)C)c(=O)n(C)c1=O | i |
| O=C(Nc1ccon1)c1ccc(S(=O)(=O)N2CCCCCC2)cc1 | i |
| Cc1nn(CCC#N)c2c1P(=S)(N1CCCC1)OC(c1ccc(F)cc1)=N2 (stereo unspecified) | 0.3 |
| Cc1ccc[n+](-c2nc3ccccc3nc2C(=C=[N-])C#N)c1 | 3.2 |
| N#CC(C(=O)Nc1ccc(Cl)cc1)=C1Nc2ccccc2N1 | i |
| Cc1ccc(-n2nnc3c(=O)n(CC(=O)OCc4ccccc4)cnc32)cc1 | 0.6 |
| O=C1c2ccccc2C(=O)N1OCc1ccc(Cl)cc1 | i |
| Oc1ccc(-c2nnc(SCC3CCCCC3)o2)cc1 | i |
| O=C(O)c1ccc(NS(=O)(=O)c2ccc3c(c2)OCCO3)cc1 | i |
| Cc1cc(NC(=O)CSc2nc3ccccc3c(=O)n2C(C)c2ccccc2)no1 (stereo unspecified) | i |

A draw from above in order of SMILES length, smallest number first.
| SMILES | H5N1 CPE |
| --- | --- |
| O=C1c2ccccc2-c2nccnc21 | i |
| N#CC(C(=O)Nc1ccc(Cl)cc1)=C1Nc2ccccc2N1 | i |
| Cc1ccccc1C(=O)Nc1sc(C)c(C)c1C(=O)c1ccccc1 | i |
| COc1ccccc1CN1C(=O)CN(C2CCCCCC2)C(=O)C1c1ccc(F)cc1 (stereo unspecified) | 1.7 |
| COC(=O)c1ccc(C(C(=O)NCc2ccccc2)N(Cc2cccs2)C(=O)c2cnccn2)cc1 (stereo unspecified) | i |

Returning to the listing with the two entries that preceded the break.
| SMILES | H5N1 CPE |
| --- | --- |
| O=C(O)c1ccc(NS(=O)(=O)c2ccc3c(c2)OCCO3)cc1 | i |
| Cc1cc(NC(=O)CSc2nc3ccccc3c(=O)n2C(C)c2ccccc2)no1 (stereo unspecified) | i |
| FC(F)Sc1nnc(-c2cccs2)n1-c1ccccc1 | i |
| COc1ccc(CN2C(=O)C(O)(CC(=O)c3ccc4c(c3)OCO4)c3ccccc32)cc1OC (stereo unspecified) | i |
| Cc1ccc(C)c(-n2c(SCC(=O)NCC3CCCO3)nnc2-c2ccoc2C)c1 (stereo unspecified) | i |
| CCOc1ccccc1N1CC(C(=O)Nc2nccs2)CC1=O (stereo unspecified) | i |
| CCOc1cc(C)c(Cl)cc1S(=O)(=O)NCC1CCCO1 (stereo unspecified) | 0.4 |
| COc1ccc(N2CCn3c2nc2c3c(=O)n(CCc3ccccc3)c(=O)n2C)c(OC)c1 | 0.5 |
| C=CCSc1nnc(NC(=O)CSc2nc3ccccc3o2)s1 | i |
| Cc1cc(NS(=O)(=O)c2ccc(NC(=O)c3cc4ccccc4o3)cc2)no1 | 0.2 |
| CCOc1ccc(CCNC(=O)C2CCN(c3ccc(N4CCOCC4)nn3)CC2)cc1OCC | i |
| CCCn1c(N)c(C(=O)CSc2nnc(-c3ccco3)n2Cc2ccccc2)c(=O)[nH]c1=O | 1.3 |
| Cc1nn(C)c(C)c1NC(=O)CSc1nc(C2CC2)nc2c1cnn2-c1ccccc1 | i |
| COC(=O)C1=C(C)Nc2ccc(C)cc2S1 | 1.0 |
| Nn1cc(-c2ccccc2)nc1SCC(=O)N1CCN(S(=O)(=O)c2ccccc2)CC1 | 0.2 |
| Cn1c(=O)[nH]c(=O)c2c1nc(CN1CCN(c3cccc(Cl)c3)CC1)n2CCCc1ccccc1 | i |
| CCOC(=O)CSc1cc(CS(=O)c2ccc(Cl)cc2)nc(-c2ccccc2)n1 (stereo unspecified) | i |
| CCn1c(SCc2c(F)cccc2Cl)nnc1-c1ccco1 | 1.4 |
| CC(C)(C)c1ccc(OC(=O)c2ccc3nsnc3c2)cc1 | 0.4 |
| COc1ccc(-c2c(S(=O)(=O)c3ccccc3)cnn2-c2ccccc2)cc1 | i |
| Cc1ccc(SCC2CNc3nc4ccccc4c(=O)n32)c(C)c1 (stereo unspecified) | 1.5 |
| CCN(CC(=O)NCc1cccs1)S(=O)(=O)c1cccc(C(C)=O)c1 | 0.6 |
| COc1cc(C2C(C(C)=O)=C(O)C(=O)N2CCN(C)C)ccc1O (stereo unspecified) | i |
| O=C1C2(c3ccccc3)CN(CCCO)CC1(c1ccccc1)CN(CCCO)C2 | i |
| CCN(CC)C(=O)CSc1nc2cc(OC)c(OC)cc2c(=O)n1Cc1ccc(Cl)cc1 | 0.3 |
| CCCCN1C(=O)/C(=c2\sc3nc(=O)c(-c4ccccc4)nn3c2=O)c2ccccc21 | i |
| Cn1c(SCc2nc3ccccc3[nH]2)nnc1-c1ccccn1 | 1.1 |
| CN(Cc1ccccc1)Cc1nc2c(c(=O)n(C)c(=O)n2C)n1CCCc1ccccc1 | 3.2 |
| C=CCN1C(=O)C(Cc2ccc(F)cc2)S/C1=N/N=C/c1cccs1 (stereo unspecified) | 4.3 |
| CCOC(=O)C(O)(c1ccc(NC(=O)c2ccco2)c(OC)c1)C(F)(F)F (stereo unspecified) | i |
| Cc1ccccc1OCCn1c(=O)oc2ccccc21 | 0.6 |
| O=C(CN(CC1CCCO1)C(=O)CCC(=O)Nc1nccs1)NCc1ccc2c(c1)OCO2 (stereo unspecified) | i |
| CN1Cc2sc(N)c(C#N)c2CC1(C)C | i |
| CCCCNC(=O)CS(=O)Cc1nc(-c2cccs2)oc1C (stereo unspecified) | 0.2 |
| COc1ccc(OCC(=O)NNC(=O)c2cccnc2)cc1 | 0.1 |
| Cc1cc2ccccc2n1CCNC(=O)COc1ccc2ccccc2c1 | 1.8 |
| O=C(Cn1c(=O)n(Cc2ccco2)c(=O)c2ccccc21)Nc1cccc(Cl)c1 | i |
| COc1cc(/C=N/N=C2\CC3CCC2(C)C3(C)C)ccc1O (stereo unspecified) | 1.3 |
| CCOc1ccc(N2CC(C(=O)NCCC3=CCCCC3)CC2=O)cc1 (stereo unspecified) | i |
| C=CCNC(=O)c1onc(CSc2ccc(F)cc2)c1C(=O)NCCOC | 1.8 |
| O=C1CCC(=O)c2oc3ccccc3c2N1 | i |
| Cc1ccc(C)n1CCN1CCN(C(=O)CSc2nc3ccccc3nc2N2CCOCC2)CC1 | i |
| O=C(CC1NCCNC1=O)OCCCc1ccccc1 (stereo unspecified) | 0.5 |
| CC1=C(C(=O)Nc2ccccc2)C(c2ccncc2)C(C#N)=C(SCC(=O)NC2CC2)N1 (stereo unspecified) | 0.3 |
| CN(C)C(=O)CSc1nc(SCC(=O)N(C)C)n(-c2ccccc2)n1 | i |
| COc1cc(CCC(=O)OCC(=O)Nc2nc(C)c(Cl)cc2Cl)cc(OC)c1OC | 0.5 |
| O=C(CCn1nc(-c2ccc(Cl)cc2)ccc1=O)NCCCN1CCCCCC1 | 0.9 |
| O=C(Cn1ncc2c(=O)oc3ccccc3c21)NCCCN1CCCC1=O | 1.3 |
